Source: PubChem
NPYLR7 ag: activates Aedes aegypti NPYLR7 receptor; actives 0.15% (n = 270,000); AID 1259423; activation, % at 10 µM; HEK293T NPYLR7/Galpha15, GCaMP6s calcium fluorescence; in the data active = activation above about 40%;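 note: 0% = vehicle and 100% = reference agonist at the receptor; some compounds past the cut are filed as inactive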
NPYLR7 ag max-min: recorded beside NPYLR7 ag, whose call it bears; activation, %; measured here: Max-Min RFU normalised activation; some inactives read as strong as hits;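 span of the calcium signal over five minutes; 0% = vehicle and 100% = native peptide agonist; compound fluorescence can raise it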
The depositor's hits bear a star; & = joins results of further samples. Only part of the results is shown; the hit share may differ from the screen's.

Preview, 3 compounds:
How did Cc1ccc(C2CC(=O)c3cn4ncnc4nc3C2)cc1 (stereo not drawn) do in these assays?
NPYLR7 ag: 11; NPYLR7 ag max-min: 6

How did CC(NC(=O)NC12CC3CC(CC(C3)C1)C2)C(=O)O (stereo not drawn) do in these assays?
NPYLR7 ag: 6; NPYLR7 ag max-min: 6

How did CCc1[nH]n(-c2ccccc2)c(=O)c1C1=C([n+]2cc(C)cc(C)c2)C(=O)N(c2cccc(C)c2)C1=O do in these assays?
NPYLR7 ag: 8; NPYLR7 ag max-min: 12

This part in full (from the top)
How did Cc1ccc(C2CC(=O)c3cn4ncnc4nc3C2)cc1 (stereo not drawn) do in these assays?
NPYLR7 ag: 11; NPYLR7 ag max-min: 6

How did CC(NC(=O)NC12CC3CC(CC(C3)C1)C2)C(=O)O (stereo not drawn) do in these assays?
NPYLR7 ag: 6; NPYLR7 ag max-min: 6

How did CCc1[nH]n(-c2ccccc2)c(=O)c1C1=C([n+]2cc(C)cc(C)c2)C(=O)N(c2cccc(C)c2)C1=O do in these assays?
NPYLR7 ag: 8; NPYLR7 ag max-min: 12

How did COCc1ccc(C(=O)NS(=O)(=O)Cc2ccccc2C#N)cc1 do in these assays?
NPYLR7 ag: 6; NPYLR7 ag max-min: 3

Results for COc1ccc(-c2c[nH]c(=S)n2CC(C)C)cc1 ?
NPYLR7 ag: -15; NPYLR7 ag max-min: -20

How did Cc1nnc(NC(=O)CN(C)C(=O)OC(C)(C)C)s1 do in these assays?
NPYLR7 ag: 6; NPYLR7 ag max-min: -6

Results for CCOCCn1c(=NC(=O)C2=COCCO2)sc2cc(OCC)ccc21 ?
NPYLR7 ag: 1; NPYLR7 ag max-min: -2

How did c1ccc(OCc2noc(CN3CCN(C4CCCC4)CC3)n2)cc1 do in these assays?
NPYLR7 ag: 2; NPYLR7 ag max-min: 2

What do the screens show for `CN(C)c1ccc(NC(=O)C2CCCC2)cc1CN(Cc1cccc(F)c1)C(=O)c1ccccc1Cl`?
NPYLR7 ag: 8; NPYLR7 ag max-min: -1

What do the screens show for `COCCN1Cc2cc(OC)ccc2N(C(=O)C2CCC2)CCC1=O`?
NPYLR7 ag: 10; NPYLR7 ag max-min: 20

Results for CN(C)c1cccc(-c2ccc3c(c2)C(C)(Cc2ccc(OC(F)(F)F)cc2)C(=O)N3)c1 (stereo not drawn) ?
NPYLR7 ag: -3; NPYLR7 ag max-min: 4

What do the screens show for `CCC(C)=NN=c1sc2ccccc2n1C`?
NPYLR7 ag: -3; NPYLR7 ag max-min: -4

How did Cc1nc2cc(C)c(C)cc2s1 do in these assays?
NPYLR7 ag: 3; NPYLR7 ag max-min: 1

Results for CC1CC(N(C)CCc2ccc(Br)cc2)C(=O)O1 (stereo not drawn) ?
NPYLR7 ag: 4; NPYLR7 ag max-min: 1

Results for COc1ccc(-c2cc(C(F)(F)F)n3nc(C(=O)NCc4ccco4)cc3n2)cc1OC ?
NPYLR7 ag: -3; NPYLR7 ag max-min: -10

What do the screens show for `CNC(=O)C1CCC(Cn2c(=O)c3sccc3n(Cc3ccc(C)cc3)c2=O)CC1` (stereo not drawn)?
NPYLR7 ag: 0; NPYLR7 ag max-min: -4

How did CC(CN1CCOCC1)NC(=O)C(C)CS(=O)(=O)c1ccc(F)cc1 (stereo not drawn) do in these assays?
NPYLR7 ag: 14; NPYLR7 ag max-min: 13

Results for CCC(Oc1ccc2c(c1)CCCC2)C(=O)N1CCc2[nH]ncc2C1 (stereo not drawn) ?
NPYLR7 ag: -3; NPYLR7 ag max-min: -4

What do the screens show for `O=C(c1ccc(Cl)cc1)N(Cc1ccco1)Cc1nccn1Cc1ccccc1C(F)(F)F`?
NPYLR7 ag: -3; NPYLR7 ag max-min: 3

Results for O=C(c1ccccc1Cl)N1CCN(c2nc(Cc3ccccc3)nc3onc(-c4ccccc4)c23)CC1 ?
NPYLR7 ag: 0; NPYLR7 ag max-min: 13

Arranged by heavy-atom count (falling): 3 of the compounds above
What do the screens show for `O=C(c1ccc(Cl)cc1)N(Cc1ccco1)Cc1nccn1Cc1ccccc1C(F)(F)F`?
NPYLR7 ag: -3; NPYLR7 ag max-min: 3

How did CC(CN1CCOCC1)NC(=O)C(C)CS(=O)(=O)c1ccc(F)cc1 (stereo not drawn) do in these assays?
NPYLR7 ag: 14; NPYLR7 ag max-min: 13

What do the screens show for `CCC(C)=NN=c1sc2ccccc2n1C`?
NPYLR7 ag: -3; NPYLR7 ag max-min: -4

Later entries
Results for COc1ccc(N2C(=O)C3CC=CCC3C2=O)cc1Cl (stereo not drawn) ?
NPYLR7 ag: -3; NPYLR7 ag max-min: -5

What do the screens show for `Cc1csc2nc(CN3CCCC(C(=O)NCC4CC4)C3)cc(=O)n12` (stereo not drawn)?
NPYLR7 ag: -1; NPYLR7 ag max-min: 0

What do the screens show for `CCC(Sc1n[nH]c(N)n1)C(=O)Nc1ccc(C)cc1C` (stereo not drawn)?
NPYLR7 ag: 3; NPYLR7 ag max-min: 3

Results for O=C(Nc1ncc(Cc2ccc(F)c(F)c2F)s1)c1ccsc1 ?
NPYLR7 ag: 0; NPYLR7 ag max-min: -4

Results for O=C(Nc1ccc(Cl)c(Cl)c1)Nn1cnc2ccccc2c1=O ?
NPYLR7 ag: 4; NPYLR7 ag max-min: 3

What do the screens show for `CCN(C(=O)c1ccc(S(=O)(=O)N2CCOCC2)o1)c1ccccc1`?
NPYLR7 ag: 2; NPYLR7 ag max-min: 2

Results for Cc1cc(-n2cccn2)ccc1CN1CCCC(OCc2cccnc2)C1 (stereo not drawn) ?
NPYLR7 ag: 0; NPYLR7 ag max-min: -1

Results for CC(C)(CCCNC(=O)C1(C#N)CCCCC1)C1OCCO1 ?
NPYLR7 ag: 0; NPYLR7 ag max-min: 2

How did COC(=O)c1ccc(-c2noc(CN3CCN(Cc4ccc(OC)cc4)C(=O)C3)n2)cc1 do in these assays?
NPYLR7 ag: 3; NPYLR7 ag max-min: 5

Results for Cc1nc(NCCNC(=O)c2ccc(F)cc2F)cc(N2CCOCC2)n1 ?
NPYLR7 ag: 2; NPYLR7 ag max-min: 0

How did CN1CCC2(CCN(C(=O)c3cc(C(F)(F)F)[nH]n3)CC2)C1 do in these assays?
NPYLR7 ag: 13; NPYLR7 ag max-min: 10

What do the screens show for `c1ccc(OCc2nc(-c3ccccn3)no2)cc1`?
NPYLR7 ag: 13; NPYLR7 ag max-min: 12

How did N#CC(Br)Cc1ccccc1C(=O)O (stereo not drawn) do in these assays?
NPYLR7 ag: 9; NPYLR7 ag max-min: 8

How did CC(CC(F)(F)F)NCCc1cnn(-c2ccccc2)c1 (stereo not drawn) do in these assays?
NPYLR7 ag: 5; NPYLR7 ag max-min: 2

How did O=C(CSc1nnc(CNC(=O)c2cccs2)n1-c1cccc(C(F)(F)F)c1)Nc1nccs1 do in these assays?
NPYLR7 ag: 12; NPYLR7 ag max-min: 13

Results for OCCn1ncc2c1CCCC2NCc1ccc(-c2ccc(F)cc2)o1 (stereo not drawn) ?
NPYLR7 ag: -10; NPYLR7 ag max-min: -12

How did CCC(=O)Nc1ccc(S(=O)(=O)NC2CCN(C(=O)C3CC3)CC2)cc1 do in these assays?
NPYLR7 ag: -3; NPYLR7 ag max-min: -6

Results for CCc1cc(C(=O)NCC(F)(F)F)n[nH]1 ?
NPYLR7 ag: 1; NPYLR7 ag max-min: -3

Results for COc1cccc(C(=O)Oc2cccc(-c3nc4cc(C)ccn4c3NC3CCCCC3)c2)c1 ?
NPYLR7 ag: 17; NPYLR7 ag max-min: 11

What do the screens show for `O=C(NCC(c1ccco1)N1CCCC1)NC1CCCCC1` (stereo not drawn)?
NPYLR7 ag: 9; NPYLR7 ag max-min: 9

What do the screens show for `COC(=O)N1CCC(Nc2nc3c(cc2C#N)CCC3)C1` (stereo not drawn)?
NPYLR7 ag: 10; NPYLR7 ag max-min: 4

What do the screens show for `O=C(CCC1CCN(Cc2cccc(Oc3ccccc3)c2)CC1)N1CCOCC1`?
NPYLR7 ag: 34; NPYLR7 ag max-min: 19

Results for COCCN(CC(C)C)C(=O)Nc1ccc(C)cc1Br ?
NPYLR7 ag: 3; NPYLR7 ag max-min: 2

How did CCOC(=O)c1ccc(N2C(=O)NC(=O)/C(=C/c3ccc(O)c(OCC)c3)C2=O)cc1 do in these assays?
NPYLR7 ag: -4; NPYLR7 ag max-min: -9

What do the screens show for `Cc1cc(C)c(C(=O)OC(C)C(=O)NC(=O)NC2CC2)c(C)c1` (stereo not drawn)?
NPYLR7 ag: 4; NPYLR7 ag max-min: 2

What do the screens show for `COc1ccc(-n2ncc(Oc3cccc(C)c3C)c(Nc3ccc(C(=O)NCC4CCCO4)cc3)c2=O)cc1` (stereo not drawn)?
NPYLR7 ag: 9; NPYLR7 ag max-min: 8

How did COc1ccc(-n2nc(-c3ccco3)cc2C(=O)N2CCN(c3ccc([N+](=O)[O-])cc3)CC2)cc1 do in these assays?
NPYLR7 ag: 23; NPYLR7 ag max-min: 25

Results for COC(=O)C(C#N)C(c1cccnc1)c1c(C)[nH][nH]c1=O (stereo not drawn) ?
NPYLR7 ag: -2; NPYLR7 ag max-min: 33

Results for O=C(Nc1ccc2c(c1)OCO2)c1cccc(CN2CC[C@H](O)C2)c1 ?
NPYLR7 ag: 5; NPYLR7 ag max-min: 3

Results for CC1CN(C)CCN1C(C)C(=O)N1CCCC(C(N)=O)C1 (stereo not drawn) ?
NPYLR7 ag: 4; NPYLR7 ag max-min: 3

Two entries picked at random from the list so far, as already listed:
How did CCOC(=O)c1ccc(N2C(=O)NC(=O)/C(=C/c3ccc(O)c(OCC)c3)C2=O)cc1 do in these assays?
NPYLR7 ag: -4; NPYLR7 ag max-min: -9

How did COc1ccc(-n2nc(-c3ccco3)cc2C(=O)N2CCN(c3ccc([N+](=O)[O-])cc3)CC2)cc1 do in these assays?
NPYLR7 ag: 23; NPYLR7 ag max-min: 25

(continued)
Results for Cc1[nH]n(-c2ccccc2)c(=O)c1N=Nc1cccc2ccccc12 ?
NPYLR7 ag: -5; NPYLR7 ag max-min: -11

How did COc1ccc(S(=O)(=O)N2CCc3ccccc3C2)cc1N1CCN(C(=O)[C@H](C)OC(C)=O)CC1 do in these assays?
NPYLR7 ag: 26; NPYLR7 ag max-min: 16

How did N#Cc1ccc(NCc2nccn2CCCc2ccccc2)nc1 do in these assays?
NPYLR7 ag: 2; NPYLR7 ag max-min: 2

What do the screens show for `CCOC(=O)c1c(NC(=O)COC)sc2c1CCC2`?
NPYLR7 ag: 0; NPYLR7 ag max-min: -5

What do the screens show for `Cc1nn(C2CCS(=O)(=O)C2)c(C)c1CNC(C)CCc1ccccc1` (stereo not drawn)?
NPYLR7 ag: 7; NPYLR7 ag max-min: 1

What do the screens show for `Cc1ccc(CN(CCc2ccccc2)C(=O)CN(CCN2CCCC2)C(=O)c2ccc(Cl)c(Cl)c2)o1`?
NPYLR7 ag: 1; NPYLR7 ag max-min: 12

What do the screens show for `O=C(Cn1nc2ccccc2n1)N1CCCC(Nc2ccc3c(c2)OCO3)C1` (stereo not drawn)?
NPYLR7 ag: 6&4; NPYLR7 ag max-min: 7&6

How did CC(C)(C)C(=O)Nc1cccc(NCC(=O)NCc2ccc(F)cc2)c1 do in these assays?
NPYLR7 ag: -1; NPYLR7 ag max-min: -2

How did CC(C)OCCC1CCCCN1C(=O)CN1CSCC1=O (stereo not drawn) do in these assays?
NPYLR7 ag: -10; NPYLR7 ag max-min: -10

How did O=C(C=Cc1nc2ccccc2o1)N1CCc2ccccc21 do in these assays?
NPYLR7 ag: 7; NPYLR7 ag max-min: 7

How did CCCc1nc(CN(CC)C(=O)c2ccc(C(C)=O)s2)no1 do in these assays?
NPYLR7 ag: 6; NPYLR7 ag max-min: -5

What do the screens show for `Cc1ccc(-c2nnc(NC(=O)C(NC(=O)Nc3cccc(Cl)c3Cl)C(C)C)s2)cc1` (stereo not drawn)?
NPYLR7 ag: 2; NPYLR7 ag max-min: 19

What do the screens show for `CCCCc1ccc(N=Cc2nc(-c3ccc(C)cc3)oc2O)cc1`?
NPYLR7 ag: -4; NPYLR7 ag max-min: -12

Results for Cc1cc(C(=O)NCC2CCCN(Cc3cnc(C)s3)C2)no1 (stereo not drawn) ?
NPYLR7 ag: 12; NPYLR7 ag max-min: 5

What do the screens show for `COC(=O)c1ccccc1NS(=O)(=O)c1cc(OC)ccc1OC`?
NPYLR7 ag: 5; NPYLR7 ag max-min: 6

What do the screens show for `COc1ccc(-c2cc(N)n(-c3ccc(C(=O)NC(c4ccccc4)c4ccccn4)cc3)n2)cc1` (stereo not drawn)?
NPYLR7 ag: -9; NPYLR7 ag max-min: -12

Results for O=C1C(c2ccccn2)=[N+]([O-])c2ccccc21 ?
NPYLR7 ag: -9; NPYLR7 ag max-min: -11

What do the screens show for `CCCN(Cc1nc2sc3c(c2c(=O)[nH]1)CCC3)C1CC(OCC)C12CCCC2` (stereo not drawn)?
NPYLR7 ag: 14; NPYLR7 ag max-min: 10

How did CCOC(=O)C1=NN(c2ccc(C)cc2)C2OCCCC12 (stereo not drawn) do in these assays?
NPYLR7 ag: 9; NPYLR7 ag max-min: 2
